Mtb MenB inh – blocks the Mycobacterium tuberculosis MenB enzyme. hit rate 0.43% among 100,000. AID 540299. MenB enzyme assay, absorbance read-out; some hits fall short of the stated cut. inhibition, %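 (about 12 µg/mL by stock and volumes)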;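 active means mean of two replicates above 30%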;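 further: 0% = no compound and 100% = wells with inactive enzyme; the first replicate is given; strong numbers were not always called active; inactives centre near -10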
Target sequence (P9WNP5 whole entry, looked up): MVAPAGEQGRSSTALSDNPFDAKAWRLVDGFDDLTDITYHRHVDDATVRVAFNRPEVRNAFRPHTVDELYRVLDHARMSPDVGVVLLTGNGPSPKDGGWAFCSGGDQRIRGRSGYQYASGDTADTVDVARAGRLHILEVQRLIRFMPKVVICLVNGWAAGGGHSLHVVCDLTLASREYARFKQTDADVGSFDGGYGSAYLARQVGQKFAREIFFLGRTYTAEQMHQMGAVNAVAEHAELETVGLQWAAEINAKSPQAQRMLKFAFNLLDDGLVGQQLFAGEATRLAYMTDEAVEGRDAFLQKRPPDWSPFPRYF
PV pol inh – inhibitors of poliovirus RNA polymerase binding and polymerization; P03300; poliovirus polymerase elongation, fluorescence polarization; stronger effect = lower value; % elongation, % (compound at 16.7 µg/mL); hit rate 0.66% among 150,000; AID 588519; in the data active means % elongation below about 90%; further: some results filed as inactive read as strong as hits
Mtb MbtI inh – inhibitors of Mycobacterium tuberculosis siderophore enzyme MbtI; P9WFX0; purified MbtI enzyme, fluorescence intensity read-out; inhibition, %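 (about 17 µg/mL by stock and volumes)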; hit rate 0.89% among 100,000;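 active means above 50% in both replicates, above 80% if mildly self-fluorescent; inactive means the rest, strongly fluorescent compounds included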;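 further: 0% = mean of negative and 100% = mean of positive controls; one replicate is shown; some compounds called inactive have numbers as strong as hits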
Target sequence (P9WFX0 whole entry, looked up): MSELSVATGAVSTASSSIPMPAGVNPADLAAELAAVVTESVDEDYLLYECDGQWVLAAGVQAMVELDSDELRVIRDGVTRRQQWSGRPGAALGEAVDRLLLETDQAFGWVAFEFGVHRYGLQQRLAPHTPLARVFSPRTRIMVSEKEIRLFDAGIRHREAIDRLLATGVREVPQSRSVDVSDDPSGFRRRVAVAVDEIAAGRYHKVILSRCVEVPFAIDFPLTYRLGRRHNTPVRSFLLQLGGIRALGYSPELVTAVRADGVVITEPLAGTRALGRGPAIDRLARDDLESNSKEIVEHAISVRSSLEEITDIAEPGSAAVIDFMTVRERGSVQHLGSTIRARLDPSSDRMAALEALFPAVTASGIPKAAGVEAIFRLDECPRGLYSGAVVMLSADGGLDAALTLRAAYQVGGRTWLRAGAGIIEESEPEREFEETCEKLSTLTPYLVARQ
PV pol inh intensity – also measured in PV pol inh; calls as there; % elongation; measured here: total intensity read-out; formula for this scale not given here;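 total fluorescence in place of polarization; lower means less elongation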
* = called active by the depositor.

Screening CC(NC(=O)CCCn1c(=O)[nH]c2ccsc2c1=O)C12CC3CC(CC(C3)C1)C2 (configuration not stated) returned Mtb MenB inh -22.5, PV pol inh 101.0, Mtb MbtI inh 4.5 and PV pol inh intensity 102.0.
`CC(C(=O)Nc1cccc(C#N)c1)N(C)Cc1ccc(Cl)cc1` (configuration not stated) gave Mtb MenB inh -1.6, PV pol inh 100.0, Mtb MbtI inh -1.8 and PV pol inh intensity 106.0.
CCN(CC)C(=O)CSc1nc(N)c2c3c(sc2n1)COC(C)(CC)C3 (configuration not stated) was read as Mtb MenB inh -23.3, PV pol inh 102.0, Mtb MbtI inh 37.3 and PV pol inh intensity 99.0.
`CC1(C)NNC(=S)N(Cc2cccc3ccccc23)C1=O` gave Mtb MenB inh -34.9, PV pol inh 100.0, Mtb MbtI inh -25.5 and PV pol inh intensity 92.0.
Screening Nc1nnc(CCCCn2c(-c3nonc3N)nc3ccccc32)s1 returned Mtb MenB inh -31.5, PV pol inh 99.0, Mtb MbtI inh 42.8 and PV pol inh intensity 112.0.
For CCSC1=NCN(Cc2cccs2)CN1 the results were Mtb MenB inh 7.2, PV pol inh 101.0, Mtb MbtI inh 5.4 and PV pol inh intensity 98.0.
For COc1ccccc1CNC(=O)N(C)C the results were Mtb MenB inh 3.8, PV pol inh 101.0, Mtb MbtI inh -11.6 and PV pol inh intensity 102.0.
Screening C(=N\N(Cc1ccccc1)Cc1ccccc1)/c1ccco1 returned Mtb MenB inh -9.1, PV pol inh 101.0, Mtb MbtI inh -15.1 and PV pol inh intensity 100.0.
`O=CN1N=C(c2ccccc2)CC1c1ccccc1` (configuration not stated) gave Mtb MenB inh -8.9, PV pol inh 99.0, Mtb MbtI inh -21.9 and PV pol inh intensity 103.0.
Screening Cc1ccc(C)c(N2CCN(S(=O)(=O)c3ccc4c(c3)CCN4C(=O)CCC(=O)O)CC2)c1 returned Mtb MenB inh -3.3, PV pol inh 103.0, Mtb MbtI inh -2.6 and PV pol inh intensity 104.0.
Screening Cn1c(-c2ccc(Cl)cc2)[n+](C)c2ccccc21 returned PV pol inh 98.0, Mtb MbtI inh 53.0 and PV pol inh intensity 99.0.
CCOC(=O)c1c(N)sc(C(O)(C(F)(F)F)C(F)(F)F)c1-c1ccc(Cl)cc1 was read as Mtb MenB inh -12.6, PV pol inh 100.0, Mtb MbtI inh -7.4 and PV pol inh intensity 108.0.
`Nc1sc2ccccc2[n+]1CC(=O)c1ccccc1` gave PV pol inh 100.0, Mtb MbtI inh -8.8 and PV pol inh intensity 107.0.
`C=C(C)C1Cc2c(C)nn(S(=O)(=O)c3ccc(C)cc3)c2C1` (configuration not stated) gave Mtb MenB inh -14.2, PV pol inh 100.0, Mtb MbtI inh -6.9 and PV pol inh intensity 100.0.
CS(=O)(=O)c1ccccc1-c1nnc(NC(=O)c2cccc(N3C(=O)CCC3=O)c2)o1 was read as Mtb MenB inh -7.2, PV pol inh 101.0, Mtb MbtI inh 13.6 and PV pol inh intensity 107.0.
`O=C(O)c1ccc(COc2ccccc2)cc1` gave Mtb MenB inh -2.8, PV pol inh 103.0, Mtb MbtI inh 2.1 and PV pol inh intensity 101.0.
For N#Cc1ccccc1NC(=O)CN1CCNC(=O)C1 the results were Mtb MenB inh -8.4, PV pol inh 105.0, Mtb MbtI inh -5.8 and PV pol inh intensity 106.0.
Screening CCOC(=O)/C(=N/O)C1=NC2(C)CCCCC2c2ccccc21 (configuration not stated) returned Mtb MenB inh -5.1, PV pol inh 101.0 and PV pol inh intensity 98.0.
O=S(=O)(c1ccc(Cl)cc1)c1ccccn1 was read as Mtb MenB inh -4.1, PV pol inh 100.0, Mtb MbtI inh 7.2 and PV pol inh intensity 103.0.
`Cc1ccc2[nH]c(O)c(N=O)c2c1` gave Mtb MenB inh -42.3, PV pol inh 102.0, Mtb MbtI inh -7.2 and PV pol inh intensity 108.0.

Reprinted from the part before: 4 compounds, then new ones.
For N#Cc1ccccc1NC(=O)CN1CCNC(=O)C1 the results were Mtb MenB inh -8.4, PV pol inh 105.0, Mtb MbtI inh -5.8 and PV pol inh intensity 106.0.
Screening CCOC(=O)/C(=N/O)C1=NC2(C)CCCCC2c2ccccc21 (configuration not stated) returned Mtb MenB inh -5.1, PV pol inh 101.0 and PV pol inh intensity 98.0.
O=S(=O)(c1ccc(Cl)cc1)c1ccccn1 was read as Mtb MenB inh -4.1, PV pol inh 100.0, Mtb MbtI inh 7.2 and PV pol inh intensity 103.0.
`Cc1ccc2[nH]c(O)c(N=O)c2c1` gave Mtb MenB inh -42.3, PV pol inh 102.0, Mtb MbtI inh -7.2 and PV pol inh intensity 108.0.
For O=C(CSc1n[nH]c(-c2ccco2)n1)N1c2ccccc2Sc2ccccc21 the results were Mtb MenB inh -11.0, PV pol inh 100.0, Mtb MbtI inh -6.0 and PV pol inh intensity 102.0.
`C[C@@H]1CC[C@@]2(NC1)O[C@H]1C[C@H]3C4CC=C5C[C@@H](O)CC[C@]5(C)C4CC[C@]3(C)C1[C@@H]2C` (some centres not stated) gave Mtb MenB inh -10.9, PV pol inh 101.0, Mtb MbtI inh -10.9 and PV pol inh intensity 102.0.
Screening CCc1ccc(-c2nn(-c3ccccc3)cc2/C=N\O)cc1 returned PV pol inh 103.0, Mtb MbtI inh -4.8 and PV pol inh intensity 103.0.
`COCCNc1nc(-c2ccc(OC)cc2)nc2ccccc12` gave Mtb MenB inh -23.6, PV pol inh 99.0, Mtb MbtI inh 167.8 and PV pol inh intensity 100.0.
For FC(F)(F)c1ccc(Sc2nnc3ccccn23)nc1 the results were Mtb MenB inh 1.7, PV pol inh 106.0, Mtb MbtI inh -7.0 and PV pol inh intensity 104.0.
Screening NNC(=O)c1ccc2c(c1)OCO2 returned Mtb MenB inh 3.6, PV pol inh 102.0, Mtb MbtI inh -0.1 and PV pol inh intensity 107.0.
`COc1ccc2c(c1)c(C(=O)ON1C(=O)CCC1=O)c(C)n2C1CC1` gave Mtb MenB inh 3.0, PV pol inh 104.0, Mtb MbtI inh -0.5 and PV pol inh intensity 93.0.
COc1ccc(CNC(=O)c2cc3c(C)nccc3[nH]c2=O)cc1 was read as Mtb MenB inh -0.2, PV pol inh 100.0, Mtb MbtI inh 5.0 and PV pol inh intensity 103.0.
For Cn1c(=O)c2c(SCC(=O)NCCc3ccccc3)nc(C3CC3)nc2n(C)c1=O the results were Mtb MenB inh -8.7, PV pol inh 102.0, Mtb MbtI inh -3.1 and PV pol inh intensity 102.0.
`O=c1[nH]cc(S(=O)(=O)N2CCCCCC2)c(=O)[nH]1` gave Mtb MenB inh -0.9, PV pol inh 103.0, Mtb MbtI inh 2.2 and PV pol inh intensity 99.0.
`Cc1sc2c(c1C)c(=O)nc1n2C(c2ccccc2)C=CS1` (configuration not stated) gave PV pol inh 102.0, Mtb MbtI inh -7.1 and PV pol inh intensity 105.0.
N#CC(Cc1ccccc1OC(F)F)c1nc2ccccc2[nH]1 (configuration not stated) was read as Mtb MenB inh -8.5, PV pol inh 102.0, Mtb MbtI inh -8.3 and PV pol inh intensity 107.0.
Screening NC(=O)CSc1ccc(-c2ccncc2)nn1 returned Mtb MenB inh 9.5, PV pol inh 101.0, Mtb MbtI inh -6.5 and PV pol inh intensity 101.0.
`COc1ccc(C2C(C(=O)N3CCN(c4ccccc4OC)CC3)CCC(=O)N2c2ccc(OC)cc2)cc1` (configuration not stated) gave Mtb MenB inh -11.4, PV pol inh 102.0, Mtb MbtI inh -3.1 and PV pol inh intensity 102.0.
Screening CCC(=O)NC(=S)Nc1ccc(NC(=O)c2ccc(Br)o2)cc1 returned Mtb MenB inh -31.8, PV pol inh 102.0, Mtb MbtI inh 4.9 and PV pol inh intensity 101.0.
For CCOC(=O)c1nc(C)sc1-c1ccnn1S(=O)(=O)c1ccccc1C(F)(F)F the results were Mtb MenB inh -19.2, PV pol inh 104.0, Mtb MbtI inh -3.8 and PV pol inh intensity 110.0.
For COC(=O)Cn1cnc2c1c(=O)[nH]c(=O)n2C the results were Mtb MenB inh 20.2, PV pol inh 100.0, Mtb MbtI inh 2.8 and PV pol inh intensity 102.0.
COc1ccc2c(Sc3ccc(C)cc3)c(C(=O)NCCc3ccc(OC)c(OC)c3)[nH]c2c1 was read as Mtb MenB inh -7.0, PV pol inh 101.0, Mtb MbtI inh 3.5 and PV pol inh intensity 105.0.
For Cc1cc(C)n2nc(C(=O)Nc3sc4c(c3C(N)=O)CCC4)nc2n1 the results were Mtb MenB inh -7.9, PV pol inh 105.0, Mtb MbtI inh 1.1 and PV pol inh intensity 107.0.
CCCCCCOc1ccc(C(=O)Nc2ccccn2)cc1 was read as Mtb MenB inh 7.8, PV pol inh 101.0, Mtb MbtI inh 8.8 and PV pol inh intensity 106.0.
For Cc1nc(/N=C(\N)NC(=O)Nc2ccc(Cl)cc2)sc1Br the results were Mtb MenB inh -9.6, PV pol inh 104.0, Mtb MbtI inh -0.2 and PV pol inh intensity 106.0.
Screening COc1cc(CN2CCCC(C(=O)N3CCCCCC3)C2)ccc1OCc1ccccc1 (configuration not stated) returned Mtb MenB inh -3.0, PV pol inh 100.0, Mtb MbtI inh -2.3 and PV pol inh intensity 104.0.
For O=C(N/N=C/c1ccccc1)N/N=C/c1ccccc1 the results were Mtb MenB inh -20.9, PV pol inh 100.0, Mtb MbtI inh -13.5 and PV pol inh intensity 102.0.
Cc1cc2c(c(Sc3ccccc3)n1)C(=O)OC2 was read as Mtb MenB inh -16.7, PV pol inh 101.0 and PV pol inh intensity 108.0.
O=S(=O)(Nc1ccc(-c2cn3ccsc3n2)cc1)c1ccccc1 was read as Mtb MenB inh -13.5, PV pol inh 97.0, Mtb MbtI inh -7.8 and PV pol inh intensity 99.0.
For O=C(O)C1(Cc2nc3ccccc3[nH]2)CCCC1 the results were Mtb MenB inh -14.1, PV pol inh 100.0, Mtb MbtI inh 2.8 and PV pol inh intensity 98.0.
CN(Cc1ccccc1)C(=O)c1ccc(Br)cc1 was read as Mtb MenB inh -50.5, PV pol inh 101.0, Mtb MbtI inh -19.6 and PV pol inh intensity 103.0.
`CCOc1ccc(OCCCn2cnc3ccccc3c2=O)cc1` gave Mtb MenB inh 8.5, PV pol inh 100.0, Mtb MbtI inh -10.2 and PV pol inh intensity 105.0.
O=C1c2cccnc2C(=O)C1c1ccnc2ccccc12 (configuration not stated) was read as Mtb MenB inh -60.7, PV pol inh 101.0, Mtb MbtI inh 7.8 and PV pol inh intensity 102.0.
For O=C(CSc1nnc2c(Cl)cc(C(F)(F)F)cn12)NCC(F)(F)F the results were Mtb MenB inh 6.7, PV pol inh 105.0, Mtb MbtI inh 80.8 and PV pol inh intensity 109.0.
O=C(NCCc1ccccc1)c1cc2ccccc2nc1Cl was read as PV pol inh 102.0, Mtb MbtI inh -5.2 and PV pol inh intensity 97.0.
Screening CCN(CC)C(=S)SCc1cccs1 returned Mtb MenB inh -36.6, PV pol inh 102.0, Mtb MbtI inh -4.0 and PV pol inh intensity 102.0.
`CCC(C(=O)Nc1cc(C)ccc1C)n1nc(C)n2c(cc3cc(C)ccc32)c1=O` (configuration not stated) gave Mtb MenB inh 7.0, PV pol inh 99.0, Mtb MbtI inh 16.9 and PV pol inh intensity 103.0.
`CCc1ccc(Nc2c3c(nc4ccccc24)CCC3)cc1` gave Mtb MenB inh -21.5, PV pol inh 101.0, Mtb MbtI inh 26.1 and PV pol inh intensity 105.0.
COC(=O)c1c(C)nc(C)c(C(=O)OC)c1-c1csc(S(=O)(=O)/N=C/N(C)C)c1 was read as Mtb MenB inh 0.7, PV pol inh 101.0, Mtb MbtI inh -0.3 and PV pol inh intensity 103.0.
`Cc1cc2nc(NC3=NC(O)C=C(CSc4nc5ccccc5[nH]4)N3)nc(C)c2cc1C` (configuration not stated) gave Mtb MenB inh 2.3, PV pol inh 104.0, Mtb MbtI inh -4.3 and PV pol inh intensity 106.0.
Screening CN(Cc1ccccc1)C(=O)CNc1ccc(Br)cc1 returned PV pol inh 104.0, Mtb MbtI inh -4.7 and PV pol inh intensity 105.0.
Screening NS(=O)(=O)c1ccc(N2C(=O)C3CC=CCC3C2=O)cc1 (configuration not stated) returned Mtb MenB inh -2.3, PV pol inh 104.0, Mtb MbtI inh -14.2 and PV pol inh intensity 103.0.
Screening CCOc1ccc(NC(=O)C2CCC(N3C(=O)C4CC=CCC4C3=O)CC2)cc1 (configuration not stated) returned Mtb MenB inh 22.9, PV pol inh 98.0, Mtb MbtI inh 2.0 and PV pol inh intensity 102.0.
Screening COc1ccc(C(=O)NC(=O)CSc2nnc(CN3CCCCCC3=O)n2-c2ccccn2)cc1 returned Mtb MenB inh 3.2, PV pol inh 102.0, Mtb MbtI inh -0.7 and PV pol inh intensity 108.0.
Cc1cccn2cc(CNS(=O)(=O)c3ccccc3F)nc12 was read as Mtb MenB inh -17.8, PV pol inh 101.0, Mtb MbtI inh -0.7 and PV pol inh intensity 106.0.
Screening O=C(O)CCC(=O)NC(c1ccccc1)c1ccccc1 returned Mtb MenB inh 5.7, PV pol inh 101.0, Mtb MbtI inh -14.5 and PV pol inh intensity 102.0.
Screening NC(=O)C1CCN(C(=O)CN2CCN(c3ccccn3)CC2)CC1 returned Mtb MenB inh -48.7, PV pol inh 102.0, Mtb MbtI inh 0.0 and PV pol inh intensity 100.0.
`O=C(c1cccs1)N1CCN(C(=O)C2CCCCC2)CC1` gave Mtb MenB inh -6.3, PV pol inh 104.0, Mtb MbtI inh -9.1 and PV pol inh intensity 96.0.

Screening results from PubChem BioAssay.
